Screening data deposited in PubChem by National Center for Advancing Translational Sciences (NCATS).
LT uptake inh: anthrax lethal toxin internalization inhibition; Potency, µM (top dose mostly 40 µM), for the others: top-dose activity change, negative = inhibition, actives largely listed as inhibitors; Cells, anthrax lethal toxin internalization, FRET ratio (460/530); hit rate 0.67% among 70,000; AID 912; active = well fitted falling ratio curve with the 530 nm signal flat; inconclusive = other ratio curves, or a change in one channel alone; inactive = flat curves in the ratio and both channels; the % refers to the ratio; further: on the % scale 0 is the no-effect control and ±100 the full control effect; nearly all actives have a fitted effect of over 50% in size; tested in ME-180 cells; beta-lactamase reporter
Prx2 Sm inh: Schistosoma mansoni Prx2 inhibition; AID 448; S. mansoni Prx2 activity coupled to TGR/GSH (TGR is thioredoxin glutathione reductase), NADPH fluorescence loss, qHTS; some inactives read as strong as hits; Potency, µM; hit rate 0.07% among 65,000; active means full or partial inhibition curve with a strong effect at the top dose; inconclusive means weaker partial or single-point curve; inactive means no accepted curve; further: series up to 57 µM; many of its hits are not listed in these tables
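Prx2 activity was followed as the loss of NADPH fluorescence (ex 365/em 450 nm), read every 30 sec for 8 min after H2O2 start. The enzyme mix (50 nM Prx2, 25 nM TGR, GSH, NADPH; pH 7.4 phosphate buffer) was incubated with compound for 15 min at room temperature first.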
* = called active by the depositor; ? = inconclusive; / = not tested or not shown; & = joins results of further samples; [ ] = dose if it differs, or a comment. Potency means the concentration at half of the fitted maximal effect.

SMILES	LT uptake inh	Prx2 Sm inh
COc1cc(C2=NOC(C(=O)NCc3ccc(F)cc3)C2)cc(OC)c1OC (stereo not given)	-14.7%	>57
Cc1nc(N2CCC3(CC2)OCCO3)c2nnn(Cc3ccccc3F)c2n1	-29.5%	>57
CCOC(=O)c1c(N)c(C#N)nn1-c1ccccc1C(=O)OC	-18.8%	>57
O=C(CCC(=O)N(c1cccc(F)c1)C(C(=O)NC1CCCC1)c1ccncc1)Nc1cccnc1 (stereo not given)	-14.4%	>57
Cn1c(=O)c2c(nc(NCC3CCCO3)n2C)n(C)c1=O (stereo not given)	17.4%	>57
CC(=O)N1CCN=C1SCc1ccccc1F	10.3%	>57
N=C1C(c2nc3ccccc3c(=O)[nH]2)=C(O)CN1CCc1ccccc1	4.8%	>57
COc1ccc(C)cc1NC(=O)CSc1nnc(COc2ccccc2)n1Cc1ccco1	?	>57
c1cc2c(c(NCc3ccncc3)c1)CCCC2	-10.9%	/
CC(C)NC(=O)N1CCC2(CC1)CCN(S(C)(=O)=O)CC2	?	/
O=C(CCN1C(=O)C2(OCCO2)c2ccccc21)c1ccccc1	-1.8%	>57
COc1ccc(-n2c(SC3CCOC3=O)nc3ccccc3c2=O)cc1OC (stereo not given)	8.0%	>57
Cc1ccc(OP(=O)(Oc2ccc(C)cc2)Oc2ccc(C)cc2)cc1	-14.3%	/
CCC(Sc1nc2n[nH]c(C)c2c(=N)n1-c1cccc(Cl)c1C)C(=O)N(CC)CC (stereo not given)	?	>57
CC1=CC(C)(C)N2C(=O)C3(C(C#N)=C(N)OC4=C3C(=O)CCC4)c3c(C)c(C)cc1c32 (stereo not given)	-19.8%	>57
CCCCNC(=O)CC1N=C2c3ccccc3N=C(SCC(=O)Nc3cccc(OC)c3)N2C1=O (stereo not given)	13.6%	>57
O=CN1CCN(C(C(=O)NC2CCCC2)c2ccc(Cl)cc2)CC1 (stereo not given)	-2.5%	>57
COc1ccc(OCC(O)CON2C(=O)c3ccccc3C2=O)cc1 (stereo not given)	15.3%	>57
CS(=O)(=O)N(CC(O)Cn1c2ccccc2c2ccccc21)c1ccccc1 (stereo not given)	-17.4%	>57
COC(=O)NC(c1cccc(F)c1)C(C(C)=O)C(=O)OC (stereo not given)	-1.6%[8 µM]	/
COc1cccc(-c2nnc(N(C)C(=O)c3ccno3)s2)c1	12.7%	>57
CN(C)c1ccc(P(=S)(N(C)C)N(C)C)cc1	3.2%	>57
N#CCCN(CCC#N)C(=O)c1ccc2c(c1)OCO2	-0.2%	>57
O=C(O)Cc1c[nH]c2ccc(O)cc12	-1.2%	>57
COc1ccc(OCCSc2nc3ccccc3n2CC(=O)O)cc1	7.1%	/

Full records, quoted from the list.
COc1ccc(OCCSc2nc3ccccc3n2CC(=O)O)cc1 is entered as LT uptake inh = 7.1%; Prx2 Sm inh = /
COc1ccc(C)cc1NC(=O)CSc1nnc(COc2ccccc2)n1Cc1ccco1 is entered as LT uptake inh = ?; Prx2 Sm inh = >57
CC(C)NC(=O)N1CCC2(CC1)CCN(S(C)(=O)=O)CC2 is entered as LT uptake inh = ?; Prx2 Sm inh = /

Continued.
SMILES	LT uptake inh	Prx2 Sm inh
CC(C)c1ccc(NC(=O)c2cccnc2)cc1	-26.5%	/
Cc1ccc(-n2c(SCc3nnc4n3CCC4)nnc2-c2ccccc2)cc1	-4.0%	>57
Cc1cc(Nc2ccccc2)n(CCOC(=O)COc2ccccc2)n1	-3.4%	>57
Cn1c(C(=O)NCCc2ccsc2)cc2c(=O)n(C)c3ccccc3c21	?	>57
O=C(CN(Cc1ccc(F)cc1)C(=O)CCC(=O)Nc1ccccn1)NCc1ccco1	?	>57
CCc1ccccc1NC(=O)CC1S/C(=N\c2nccs2)N(CC)C1=O (stereo not given)	4.5%	>57
Cc1c2ccccc2c(C)c2c1ccc1ccccc12	?	/
CC(=O)NC(CCS(C)(=O)=O)C(=O)Nc1ccc(Cl)c(Cl)c1 (stereo not given)	0.2%	>57
COC(=O)c1ccc(-c2nc(O)c3cnccn23)cc1	14.9%	>57
CC(C)C(=O)Nc1cccc(NC(=O)c2cc3ccccc3o2)c1	-11.2%	>57
CC(=O)Nc1ccccc1OCC(=O)c1ccc2c(c1)OCO2	2.9%	>57
CC(NC(=O)c1noc2c1CCCC2)c1ccccc1 (stereo not given)	-1.1%	>57
COc1ccc2[nH]cc(CCNc3nc(-c4cccc(C#N)c4)nc4ccccc34)c2c1	?	>57
CC(C)CO/N=C1/C[C@@H](O)[C@@H](O)[C@@H]2[C@H]3C(=O)N(c4ccc(F)cc4F)C(=O)[C@@H]3CC[C@H]12	-3.6%[1.6 µM]	/
O=C(O)c1cccc([As]=[As]c2cccc(C(=O)O)c2)c1 (stereo not given)	?	0.253*
CCCCN(C(=O)NC(=O)Nc1c(C)cc(C)cc1C)S(C)(=O)=O	-8.6%	>57
Brc1ccccc1	5.7%	/
CCOc1cc(C2C(C(=O)O)c3cc(OCC)c(OCC)cc3C(=O)N2C)ccc1O (stereo not given)	3.2%	>57
CCOC(=O)c1sc(N)c(C#N)c1CSc1nnc(C2CCCCC2)n1N	/	>57
CCn1c(=O)c(C(=O)NCc2ccc(OC)cc2)c(O)c2ccccc21	-1.6%	>57
O=C(NCc1ccco1)c1ccc2nc3sc4c(c3c(=O)n2c1)CCCC4	20.4%	>57
Cc1ccc(C)c(NC(=O)CSc2nnc(CSc3nc(C)cc(C)n3)n2Cc2ccco2)c1	3.0%	>57
Cn1c(=O)[nH]c(=O)c2c1nc(Br)n2CCCO	?	>57
Cc1cc(NC(=O)c2ccc3c(c2)OCCO3)no1	-1.4%	>57
Cc1sc2nc(CN(C(=O)c3cccs3)C3CCCC3)[nH]c(=O)c2c1C	2.1%	>57
New compounds follow.
SMILES	LT uptake inh	Prx2 Sm inh
CC1(C)CC(=O)C2=C(C1)N(c1ccc(F)cc1)C(=O)CC2c1cccnc1 (stereo not given)	-3.7%	>57
COc1cc2c(cc1OC)C(C)N(C(=O)c1cc3ccccc3o1)CC2 (stereo not given)	-22.8%	/
CCOC(=O)N1CCN(c2c(N3CCC(N4CCCCC4)CC3)c(=O)c2=O)CC1	10.8%	>57
CCN(CC)CCNC(=O)Cn1cnc2sc(C)c(S(=O)(=O)N3CCOCC3)c2c1=O	-8.7%	>57
O=C(CSc1nnc(CSc2nc3ccccc3s2)o1)NC1CCCCC1	-5.8%	/
O=C(NC1CCN(Cc2ccccc2)CC1)C1CCCN(S(=O)(=O)c2cccc3nonc23)C1 (stereo not given)	7.1%	>57
CCOC(=O)c1cccc(NC(=O)CN(c2ccc(C)cc2)S(=O)(=O)c2c(C)n[nH]c2C)c1	-2.8%	>57
CC(=O)N1C(=O)N(C)C2C1N(C)C(=O)N2C(C)=O (stereo not given)	-11.9%	>57
O=S(=O)(c1ccccc1)N1CCC2(CCN(C(c3ccccc3)c3ccccc3)CC2)CC1	?	>57
CCCC(=O)Nc1c(C(=O)OCC)[nH]c2ccccc12	6.5%	>57
C[C@@H]1CNCCN1S(=O)(=O)c1cccc2cnccc12	13.8%&7.0%&6.1%	>57&>57&>57
CNc1nc(-c2cccc(C#N)c2)nc2ccccc12	-12.4%	>57
NC(=O)c1cc(S(=O)(=O)Nc2cccc(F)c2)co1	-1.5%	>57
CCN(CC)CCCC(C)n1c(-c2ccccc2)nc2c(NCCOC)nc(C)nc21 (stereo not given)	-0.9%	/
Cc1cc(NC(=O)c2ccco2)ncc1NC(=O)CCc1ccccc1	2.3%	>57
COc1ccc(-n2c(Cc3cccn3C)nnc2SCC(=O)Nc2ccccc2F)cc1	-2.5%	>57
CC(=O)C(Sc1nn(C)c(=S)s1)C(=O)Nc1ccccc1 (stereo not given)	/	>57
O=C(O)CN1CCN(Cc2ccc(F)cc2Cl)C1=O	-0.8%	>57
O=C(COC(=O)C1CC(=O)N(c2ccc3c(c2)OCCO3)C1)NC1CCCc2ccccc21 (stereo not given)	-6.5%	>57
COc1ccccc1-c1noc(CCC(=O)Nc2cccc(C)c2)n1	-2.2%	>57
CC(=O)Nc1coc2ccc(Br)cc12	-1.8%	>57
CC1(C)CC2CC(C)(CN2C(=O)C23CCC(C)(C(=O)O2)C3(C)C)C1 (stereo not given)	-3.6%	/
O=C(O)/C=C\[C@H](O)c1ccc(Cl)cc1	-5.3%	>57
Cc1onc(-c2ccccc2Cl)c1C(=O)NCCn1c(C)cc2ccccc21	-0.1%	>57
CCc1nc2ccccc2n1CC(=O)N(C(C)CC)C1CCS(=O)(=O)C1 (stereo not given)	?	>57
(cont.)
SMILES	LT uptake inh	Prx2 Sm inh
N#Cc1cccc(-c2nccc(-n3ccnc3)n2)c1	-9.4%	?
CSc1cccc(NC(=O)COc2ccccc2)c1	-12.3%	>57
CCCOc1ccc(N2C(=O)CC(N3CCCC(C(=O)N4CCCC4)C3)C2=O)cc1 (stereo not given)	-9.2%	>57
COc1ccccc1NC(=O)c1cc(Sc2nncn2C)nc2ccccc12	?	>57
O=C(CSc1nnc(-c2ccccc2O)o1)N1CCc2ccccc2C1	5.0%	>57
Cc1noc(C)c1CSc1nc2ccccc2nc1NS(=O)(=O)c1ccc(Cl)cc1	-10.9%	>57
Cc1cc(C(=O)OCC(=O)NCc2ccco2)c(C)n1-c1ccc(F)cc1	?	>57
COc1cc(C2=NOC(C(=O)NC3CCCCC3)C2)cc(OC)c1OC (stereo not given)	0.9%	>57
O=C(CSc1nc2c(cnn2-c2ccc(F)cc2)c(=O)[nH]1)N1CCCCCC1	7.8%	>57
O=C(NCCN1CCOCC1)c1ccc2c(c1)N(Cc1ccc(F)cc1)C(=O)CS2	-8.7%	>57
Cc1nn(-c2ccccc2)c2c1C1(C(=O)N(C)c3ccccc31)C(C#N)=C(N)O2 (stereo not given)	-3.1%	>57
CNc1ccccc1-n1ccc(-c2ccccc2)n1	-26.9%	>57
Cc1nn(Cc2ccccc2)c(Cl)c1C(=O)OCc1nnc(-c2ccc(Cl)cc2)o1	-25.5%	>57
O=C(c1cnccn1)N1CCC2(CC1)CCN(c1ncccn1)CC2	11.2%	>57
Cc1cccc(CCNC(=O)c2nnc(Cc3ccc(Cl)cc3)o2)c1	-0.4%	>57
OC1(CN2CCOCC2)C2CC3CC(C2)CC1C3 (stereo not given)	-0.3%	>57
CN(C)c1nc(OCCNC(=O)COc2ccc(Cl)cc2Cl)nc(N2CCOCC2)n1	/	>57
COc1ccc(Cl)c(NC(=O)NCCN2CCN(c3ccccc3)CC2)c1	6.1%	>57
COc1ccc(C(=O)CN2C(=O)c3ccccc3C2=O)c(OC)c1C	-16.2%	>57
CCSC(=Nc1ccccc1)C1=C(O)COC1=O	-4.5%	>57
O=C(CN1C(=O)CSC1=O)Nc1ccccc1F	-0.4%	>57
CC(C)(C)c1cc(CN2CCN(CCC#N)CC2)cc(C(C)(C)C)c1O	?	>57
CC1CCCN(C(C(=O)Nc2ccc3c(c2)OCCO3)c2ccccc2)C1 (stereo not given)	-5.6%	>57
COc1ccc(-c2ccc(-c3nnn(CC(=O)N4CCOCC4)n3)cc2)cc1	-0.2%	>57
CCOC(=O)N1CCN(C(=O)CSCc2nc(-c3ccccc3C)oc2C)CC1	1.6%	>57

In a second layout: 3 of the compounds above
SMILES,LT uptake inh,Prx2 Sm inh
Cc1noc(C)c1CSc1nc2ccccc2nc1NS(=O)(=O)c1ccc(Cl)cc1,-10.9%,>57
Cc1cc(C(=O)OCC(=O)NCc2ccco2)c(C)n1-c1ccc(F)cc1,?,>57
COc1cc(C2=NOC(C(=O)NC3CCCCC3)C2)cc(OC)c1OC (stereo not given),0.9%,>57

The results go on.
SMILES	LT uptake inh	Prx2 Sm inh
Cc1ccc(N2CCN(CC3CC=CCC3)CC2)cc1 (stereo not given)	?	/
Cc1nn(-c2ccccn2)c2nc(-c3cccs3)cc(C(=O)N3CCOCC3)c12	1.2%	>57
O=C(COc1ccccc1)N1CCN(C(=O)Cc2ccccc2)CC1	6.5%	/
Cc1nc2ccccc2nc1N1CCCC1	-10.0%[8 µM]	>57
Cc1nc2ccc(-c3ccccc3)cc2o1	-10.6%	>57
CCOc1ccccc1N(CC(=O)NC1CCCCC1)C(=O)CCCC(=O)Nc1ccccn1	?	>57
CC(=O)c1ccccc1NC(=O)C1C2CCC(O2)C1C(=O)O (stereo not given)	-6.1%	>57
O=C(Nc1cccc(-c2cn3ccccc3n2)c1)c1cnccn1	-3.8%	>57
Cn1c(=O)oc2cc(S(=O)(=O)NCCc3ccccc3)ccc21	-4.0%	>57
O=C(Nc1ccc(NC(=O)C2CC2)nc1)c1cccnc1	-11.1%	>57
COc1ccc(-c2nnc(NC(=O)c3ccc(S(=O)(=O)N4CCCc5ccccc54)cc3)o2)cc1	-12.8%	>57
CCCn1c(Nc2nc3ccccc3n2C)nc2ccccc21	6.31µM*	>57
O=C1CN(/N=C\c2ccc([N+](=O)[O-])o2)C(=O)N1	-7.9%[3.58 µM]	>57
Cn1nnnc1SCCNCc1ccncc1	/	>57
O=C(O)CCCC(=O)Nc1ccccc1C(=O)N1CCCC1	2.9%	>57
Cc1cc(Cl)c(S(=O)(=O)N2CC(C)OC(C)C2)cc1OCC(N)=O (stereo not given)	-11.9%	>57
COCCN1C(=O)c2ccccc2C(C(=O)NCCCN2CCCC2=O)C1c1c[nH]c2ccccc12 (stereo not given)	-2.7%	>57
Cc1cc(C)n(C(=O)CCCC(=O)n2nc(C)cc2C)n1	-5.4%	>57
COC(=O)c1ccc(NC(=O)CN2CCOCC2)cc1	/	>57

This is a subset; count on the stated rates, not on these rows.
